# Screens deposited in PubChem by Fisher Drug Discovery Resource Center.
# NPYLR7 agonist: activates Aedes aegypti NPYLR7 receptor; 270,000 tested, 0.15% active; HEK293T NPYLR7/Galpha15, GCaMP6s calcium fluorescence; activation, % at 10 µM; AID 1259423; in the data active = activation above about 40%;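 note: 0% = vehicle and 100% = reference agonist at the receptor; some compounds past the cut are filed as inactive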
# NPYLR7 agonist max-min: also measured in NPYLR7 agonist; calls as there; activation, %; measured here: Max-Min RFU normalised activation; some inactives read as strong as hits;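 span of the calcium signal over five minutes; 0% = vehicle and 100% = native peptide agonist; compound fluorescence can raise it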
# Numbers without * were called inactive; & = joins results of further samples.
# Second line of a record: NPYLR7 agonist	NPYLR7 agonist max-min
Cc1c(C(=O)NCc2ccc(F)cc2)c(C(F)(F)F)nn1C1CCCN(C)C1 (stereo not drawn)
 : 8.6	0.3
CCn1cc(-c2nnc(SCc3cccc4ccccc34)n2C)ccc1=O
 : 0.6	0.6
CCC(O)CN(Cc1ccc(OC)cc1)C(C)C (stereo not drawn)
 : 44.6	39.0
O=C(c1cc(C2CC2)[nH]n1)N1CCC(=Cc2cc(Cl)ccc2Cl)CC1
 : 6.9	16.5
COc1cccc(-c2nnc(SCC#N)n2-c2ccc(Cl)cc2)c1
 : -5.8	-4.7
COc1ccc([N+](=O)[O-])cc1NC(=O)CCl
 : -3.4	-8.3
Cc1cc(C)cc(COc2coc(CN3CCN(C(=O)CCc4ccccc4)CC3)cc2=O)c1
 : 1.9	3.9
Cc1ccc(OCc2cc(C(=O)NC(C)c3nc(-c4ccccc4)no3)no2)cc1C (stereo not drawn)
 : 2.7	0.7
COc1ccccc1N=Nc1c(-c2ccccc2)[nH]n(-c2ccc([N+](=O)[O-])cc2)c1=O
 : -1.4	-8.1
COc1cccc(C(=O)NNc2cc(=O)n(C)c(=O)n2C)c1OC
 : -1.8	-3.1

# Second line of a record: NPYLR7 agonist	NPYLR7 agonist max-min
CC(=O)N1CCN(Cc2nc3c(Br)cc(Br)cc3c(=O)[nH]2)CC1
 : 7.9	5.8
Cc1nn(CCC#N)c(C)c1CCC(=O)NOCc1ccccc1
 : 5.7	-1.2
CC1CCc2[nH]nc(-c3nc(C4CC4)nn3-c3ccccn3)c2C1 (stereo not drawn)
 : 14.8	7.1
N#Cc1cccc(CC2(c3ccc(Cl)cc3)C(=O)Nc3ccc(F)cc32)c1 (stereo not drawn)
 : 5.6	2.5
CCOC(=O)c1cc(-c2cccc(NC(=O)c3ccc(C(=O)OC)cc3)c2)n(-c2ccccc2C)n1
 : 32.6	20.8
Cc1cccc(C(=O)OCC(=O)OC(C)(C)C)c1O
 : 0.6	-2.2
CCc1ccsc1C(=O)Nc1cccc(CS(C)(=O)=O)c1C
 : 6.1	1.5
CCCC(=O)NC(N)=Nc1nc(C)c2cc(C)ccc2n1
 : -5.5	-11.5
CC(C)(Oc1ccc(CCNC(=O)c2ccc(Cl)cc2)cc1)C(=O)NCCc1ccncc1
 : -8.5	-10.6
CC(C)NC(=O)Cn1c(CO)cnc1SCCc1ccccc1
 : 5.4	2.1

# Single records, as listed above. Order of values: NPYLR7 agonist | NPYLR7 agonist max-min
# CC(=O)N1CCN(Cc2nc3c(Br)cc(Br)cc3c(=O)[nH]2)CC1 reads 7.9 | 5.8
# CC1CCc2[nH]nc(-c3nc(C4CC4)nn3-c3ccccn3)c2C1 (stereo not drawn) reads 14.8 | 7.1

# Later entries.
# Second line of a record: NPYLR7 agonist	NPYLR7 agonist max-min
CCCCN(C(C)=O)c1c(CC)nc2ccc(C(=O)NCCN3CCNC3=O)cn12
 : -8.4	-10.9
CC1=C(C(=O)OC(C)C)C(c2cccs2)N2C(=O)CCSC2=N1 (stereo not drawn)
 : 5.1	3.1
CN(c1cccnn1)C1CCN(C(=O)C2CCc3ccccc32)CC1 (stereo not drawn)
 : -8.6	-11.2
CCOC(=O)N1CCC(OC(=O)c2ccc(-c3ccccc3)nc2C)CC1
 : 8.0	8.5
CCN(CC)C(C)CNC(=O)Nc1ccc(C)cc1F (stereo not drawn)
 : 8.6	6.1
CCN1CCN(C(=O)CCC2CCN(C(C)Cc3ccccc3OC)CC2)CC1 (stereo not drawn)
 : 6.4	3.9
CCn1nc(-c2cc(N)nc3[nH]ccc23)nc1N(C)C
 : -4.1	-5.1
O=C(CCc1nc2ccccc2s1)N1CCC2(CCCO2)CC1
 : 7.8	4.0
C=CCn1c(SCC(=O)NCC2CCCO2)nnc1C1CCCCC1 (stereo not drawn)
 : 0.7	0.7
COc1cccc(CNC(=O)C2CCN(C(=O)CCNC(=O)Nc3c(F)c(F)c(F)c(F)c3F)CC2)c1
 : -1.1	14.7

# Second line of a record: NPYLR7 agonist	NPYLR7 agonist max-min
CN(Cc1cccc(F)c1)C(=O)CNC(=O)c1ccccc1
 : 5.7	1.6
COc1ccc([N+](=O)[O-])cc1NP(=Nc1nccs1)(c1ccccc1)c1ccccc1
 : -19.8	-25.4
COc1ccc(/C=C/CN2CCC(C(=O)NC(c3ccc(Cl)cc3)c3ncccc3C)CC2)cc1 (stereo not drawn)
 : 0.9	-8.7
Cc1ccc(C)c(NC(=O)CSc2nc(=O)n3cc(Cl)ccc3n2)c1
 : 3.9	0.7
CCCCNC(=O)NC(C)C(=O)Nc1nnc(-c2cccc(C)c2)s1 (stereo not drawn)
 : 18.3	21.9
CC(C)(CCNC(=O)N(CCO)Cc1ccccc1)c1ccccc1
 : -3.7	-3.6
COc1ncccc1CNC(C(=O)N1CCCC1)c1ccccc1 (stereo not drawn)
 : -1.2	1.3
CCOC(=O)N1CCN(C2CCCN(C(=O)c3cccc(Cl)c3)C2)CC1 (stereo not drawn)
 : 0.6&15.8	-0.2&5.3
Cc1ccc(CN(C)C(=O)c2c[nH]c3ccccc23)o1
 : 4.8	2.2
O=C(c1ccncc1)N1N=C(C2CC2)CC1(O)C(F)(F)F (stereo not drawn)
 : -2.5	-3.3

# Second line of a record: NPYLR7 agonist	NPYLR7 agonist max-min
O=C(CSc1nc2ccccc2s1)Nc1nccs1
 : 0.2	1.5
COc1ccc(Br)cc1S(=O)(=O)N1CCC(n2c(=O)[nH]c3ccccc32)CC1
 : -7.6	-15.9
CC(C)Oc1ccc(CN2CCC2(C)C(=O)Nc2ccccc2Cc2ccccc2)cc1 (stereo not drawn)
 : 18.2	13.2
C=CCNCC1CC(c2ccccc2C)=NO1 (stereo not drawn)
 : 1.1	-6.2
O=C(c1ccc(-c2ccco2)[nH]c1=O)N1CC=C(c2ccc(O)cc2)CC1
 : 7.7	-7.0
Cc1cc(C)n2nc(C(=O)N3CCCC4(C3)C(=O)Nc3ccccc34)cc2n1 (stereo not drawn)
 : 17.4	3.0
Brc1cc(CNCc2nnc3n2CCC3)cs1
 : 0.7	-2.1
CC1(C)Cc2cccc(OCCCS(=O)(=O)N3CCCCC3)c2O1
 : 8.4	11.7
CSCCC(Nc1ncnc2sc3c(c12)CCC3)C(=O)O (stereo not drawn)
 : -5.6	-12.5
CCOC(=O)c1c(C)[nH]c(C(=O)COC(=O)c2ccccc2N(C)C(C)=O)c1C
 : 6.7	10.0

# Shown as tab-separated lines: 23 of the compounds above
mol	NPYLR7 agonist	NPYLR7 agonist max-min
CCN1CCN(C(=O)CCC2CCN(C(C)Cc3ccccc3OC)CC2)CC1 (stereo not drawn)	6.4	3.9
CCn1nc(-c2cc(N)nc3[nH]ccc23)nc1N(C)C	-4.1	-5.1
O=C(CCc1nc2ccccc2s1)N1CCC2(CCCO2)CC1	7.8	4.0
C=CCn1c(SCC(=O)NCC2CCCO2)nnc1C1CCCCC1 (stereo not drawn)	0.7	0.7
COc1cccc(CNC(=O)C2CCN(C(=O)CCNC(=O)Nc3c(F)c(F)c(F)c(F)c3F)CC2)c1	-1.1	14.7
CN(Cc1cccc(F)c1)C(=O)CNC(=O)c1ccccc1	5.7	1.6
COc1ccc([N+](=O)[O-])cc1NP(=Nc1nccs1)(c1ccccc1)c1ccccc1	-19.8	-25.4
COc1ccc(/C=C/CN2CCC(C(=O)NC(c3ccc(Cl)cc3)c3ncccc3C)CC2)cc1 (stereo not drawn)	0.9	-8.7
Cc1ccc(C)c(NC(=O)CSc2nc(=O)n3cc(Cl)ccc3n2)c1	3.9	0.7
CCCCNC(=O)NC(C)C(=O)Nc1nnc(-c2cccc(C)c2)s1 (stereo not drawn)	18.3	21.9
CC(C)(CCNC(=O)N(CCO)Cc1ccccc1)c1ccccc1	-3.7	-3.6
COc1ncccc1CNC(C(=O)N1CCCC1)c1ccccc1 (stereo not drawn)	-1.2	1.3
CCOC(=O)N1CCN(C2CCCN(C(=O)c3cccc(Cl)c3)C2)CC1 (stereo not drawn)	0.6&15.8	-0.2&5.3
Cc1ccc(CN(C)C(=O)c2c[nH]c3ccccc23)o1	4.8	2.2
O=C(c1ccncc1)N1N=C(C2CC2)CC1(O)C(F)(F)F (stereo not drawn)	-2.5	-3.3
O=C(CSc1nc2ccccc2s1)Nc1nccs1	0.2	1.5
COc1ccc(Br)cc1S(=O)(=O)N1CCC(n2c(=O)[nH]c3ccccc32)CC1	-7.6	-15.9
CC(C)Oc1ccc(CN2CCC2(C)C(=O)Nc2ccccc2Cc2ccccc2)cc1 (stereo not drawn)	18.2	13.2
C=CCNCC1CC(c2ccccc2C)=NO1 (stereo not drawn)	1.1	-6.2
O=C(c1ccc(-c2ccco2)[nH]c1=O)N1CC=C(c2ccc(O)cc2)CC1	7.7	-7.0
Cc1cc(C)n2nc(C(=O)N3CCCC4(C3)C(=O)Nc3ccccc34)cc2n1 (stereo not drawn)	17.4	3.0
Brc1cc(CNCc2nnc3n2CCC3)cs1	0.7	-2.1
CC1(C)Cc2cccc(OCCCS(=O)(=O)N3CCCCC3)c2O1	8.4	11.7

# Continued:
# Second line of a record: NPYLR7 agonist	NPYLR7 agonist max-min
CCCC1COCCN1C(=O)CCNC(=O)c1ccccc1F (stereo not drawn)
 : -1.4	-8.3
Cc1cc(C(=O)Nc2ccc(-c3cccc(-c4ccc5c(c4)OCCO5)n3)cc2)c(C)o1
 : -4.3	-4.0
CC(C)Oc1ccccc1C(C)Nc1cc(C(N)=O)c2ccccc2n1 (stereo not drawn)
 : -1.2	-2.4
COc1coc(C(=O)N2CCN(c3ccccc3)CC2)cc1=O
 : 12.1	4.5
CCn1ccnc1CN1CCC2(CCCN(Cc3cc(OC)ccc3F)C2=O)C1 (stereo not drawn)
 : 10.6	4.6
COc1ccc(C=NN=C2NC(=O)C(Cc3cccc(C(F)(F)F)c3)S2)cc1OC (stereo not drawn)
 : -3.7	-6.2
CCC(NC(=O)c1cn(C/C=C/c2ccccc2)nn1)c1cccs1 (stereo not drawn)
 : 3.6	-3.5
CN(c1ccccc1)N1CC(C(=O)NCC2CCCO2)CC1=O (stereo not drawn)
 : -5.5	-8.7
O=C(CCn1cncn1)N1CCOC(CC(c2ccccc2)c2ccccc2)C1 (stereo not drawn)
 : 6.6	-1.1
CCc1nn2c(NCCOC)cc(C)nc2c1-c1ccccc1
 : 2.2	1.4

# Second line of a record: NPYLR7 agonist	NPYLR7 agonist max-min
Cc1[nH]c(=S)[nH]c(=O)c1CC(=O)O
 : 9.2	7.6
O=C(CCl)N1CCN(S(=O)(=O)c2cccs2)CC1
 : 8.5	1.9
CC(C)(C)c1cc(N2CCCC2)nc(SCc2cccc(C(=O)NCc3ccccn3)c2)n1
 : 17.6	24.0
COc1ccc(CC2CCCN2C(=O)c2scnc2Cl)cc1 (stereo not drawn)
 : 0.8	12.3
Cc1ccccc1N(CCCN1C(=O)c2cccc3cccc(c23)C1=O)C(=O)c1ccc([N+](=O)[O-])cc1
 : -1.2	-6.8
Cc1cccc2oc(-c3ccccc3OS(C)(=O)=O)nc12
 : 0.8	9.3
OCc1ccccc1-c1nccnc1NCc1ccco1
 : 1.3	-4.6
CN(C)C(=O)COc1ccccc1CN1C[C@@H]2C3CCC(CC3)[C@@H]2C1
 : 10.4	4.8
NC(=O)C1CCCN(C(=O)CCc2nnc(C3(c4ccc(Cl)cc4)CCC3)o2)C1 (stereo not drawn)
 : 2.9	-0.5
O=C(c1ccc(C(F)(F)F)cc1)C1CCCN(C(=O)c2cnn(Cc3ccccc3)c2)C1 (stereo not drawn)
 : 8.5	-0.6

# Second line of a record: NPYLR7 agonist	NPYLR7 agonist max-min
COC(=O)c1sccc1NS(=O)(=O)c1cc(C)ccc1C
 : 2.8	-2.6
O=C(CCCCn1c(=O)[nH]c2ccccc2c1=O)N1CCN(c2ccc([N+](=O)[O-])cc2)CC1
 : -9.0	-9.3
Cc1nc(NCCNS(C)(=O)=O)cc(N2CCOCC2)n1
 : 1.3	-1.8
CC1(C)OCC(CNC(=O)c2ccc(-c3cc(-c4cccc5ccccc45)[nH]n3)cc2)O1 (stereo not drawn)
 : -1.5	1.8
COc1ccc(N2CCN(c3ncnc4c3cnn4CCNC(=O)C3CCCC3)CC2)cc1
 : -0.3	-2.0
O=C(c1ccc(Cl)cc1Cl)N1CCCC(OCc2cccc(OC(F)(F)F)c2)C1 (stereo not drawn)
 : -2.3	0.7
Cc1ccsc1-c1nc(COc2ccc(S(C)(=O)=O)cc2)c(C)o1
 : 8.9	6.7
CCN(C)C(=O)c1ccccc1N1CCC(NC(=O)c2cccc(OC)c2)CC1
 : -9.4	12.2
COCCN1Cc2sccc2NCCC1=O
 : 19.7	31.5
CC(C)(CNC(=O)N1CCC(N2CCCC2)CC1)c1ccc(F)cc1
 : 8.1	2.2

# Second line of a record: NPYLR7 agonist	NPYLR7 agonist max-min
CC(C)c1nc(CS(=O)(=O)C(C)C(=O)N(C)c2ccccc2)cs1 (stereo not drawn)
 : 4.7	13.5
O=S1(=O)CCC(CNc2ccc3c(Cl)ccnc3c2F)C1 (stereo not drawn)
 : 12.2	7.1
COc1ccc(Cl)c2sc(N(Cc3cccnc3)C(=O)c3cccc(S(C)(=O)=O)c3)nc12
 : 15.8	10.8
O=C(NC1(c2ccccc2)CC1)c1cc(COc2cccc3cccnc23)on1
 : 0.8	0.1
Cn1c(-c2ccccc2F)nnc1S(=O)(=O)Cc1ccon1
 : 3.7	2.1
O=S(=O)(CCn1ccnc1)c1cc(Cl)ccc1Cl
 : 1.7	1.2
CC1CCCC(C)N1C(=O)COC(=O)c1cccc(OC(F)F)c1 (stereo not drawn)
 : 4.3	0.0
CCC(C(=O)N1C[C@@H]2[C@@H]3CC[C@@H](C3)[C@@H]2C1)n1cccn1 (stereo partly drawn)
 : 10.8	6.8
CN(Cc1cc(C(C)(C)C)n[nH]1)C(=O)Cc1c[nH]c2ccccc12
 : -0.3	-1.7
CC(NC(=O)Cn1nc2n(c1=O)CCCCC2)c1ccccc1 (stereo not drawn)
 : 1.0	-0.2
O=C(c1ccno1)N(CCCN1CCOCC1)c1nc2c(F)cc(F)cc2s1
 : 1.4	21.2
c1ccc(Cn2cc(CN3CCN(c4ncccn4)CC3)c(-c3cc4ccccc4o3)n2)cc1
 : -2.3	-2.7

# These rows are one share of the data; rates above refer to the full screens.
